Screening results as filed in PubChem BioAssay.
AID504770: E. coli YBA685 growth inhibition, screen for V. cholerae RctB inhibitors | AID 504770 | E. coli YBA685 rctB-dependent plasmid, OD600 growth, 3 h; hits give low values | z-score (concentration not given with the values) | actives 0.27% (n = 130,000);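 active means z-score under -2 on both plates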;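 further: wells of about 30 µL received 100 nL stock; score is relative to mean and SD of the test wells; the first replicate is given; strong numbers were not always called active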
CapD inh: CapD enzyme inhibition; z-score (concentration not given with the values); AID 492967; purified CapD enzyme, fluorescence intensity read-out; hits give low values; some hits fall short of the stated cut; actives 0.23% (n = 140,000);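 active means z-score under -4 in either of two replicates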;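 further: stock transfer was 100 nL into about 40 µL; score is relative to mean and spread of the plate; one replicate is shown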
* = called active by the depositor; . = no result given; & = joins results of further samples. A portion of the library (hit frequency here may not be typical).

smiles	AID504770	CapD inh
O=C(CSC1=NS(=O)(=O)c2ccccc2N1)c1ccccc1	0.75	-0.68
COC(=O)C(C)n1cnc2sc3c(c2c1=O)CCCC3 (centres undefined)	-0.5	.
COc1ccc(OC)c(C2NC(=O)NC(C)=C2C(=O)OCc2ccc3c(c2)OCO3)c1 (centres undefined)	.	-0.55
CC(C)=NNc1c(Cl)cc(Cl)cc1Cl	0.8	-0.14
Cc1cc(C)c(C#N)c(N2CCN(c3ccccc3)CC2)n1	0.35	0.52
Cc1ccc(S(=O)(=O)NC(=O)Nc2scc(C)c2C(=O)c2ccccc2)cc1	0.05	-0.41
COC(=O)c1cc([N+](=O)[O-])ccc1N1CCCC1	.	-1.2
CCCN(CCC)S(=O)(=O)c1ccc(C)cc1	0.45	.
COc1ccccc1NC(=O)C1C2C=CC3(CN(Cc4cccnc4)C(=O)C13)O2 (centres undefined)	-0.7	0.2
O=c1cnc(Nc2ccccc2Cl)c2ccccc2n1	-0.55	.
CCc1nnc2c(N(C)c3cccc(C)c3)nc3ccccc3n12	-1.15	-0.29
COc1cc(SC#N)ccc1N=Cc1c(C)[nH]n(-c2ccc(Br)cc2)c1=O	.	-0.11

Compound profiles (already shown):
Profile of `Cc1ccc(S(=O)(=O)NC(=O)Nc2scc(C)c2C(=O)c2ccccc2)cc1` : AID504770 = 0.05; CapD inh = -0.41
Profile of `COc1cc(SC#N)ccc1N=Cc1c(C)[nH]n(-c2ccc(Br)cc2)c1=O` : AID504770 = .; CapD inh = -0.11

Later entries:
smiles	AID504770	CapD inh
COc1ccc(I)c(OC)c1	-0.2	0.295
CN(CC(=O)NC(c1ccccc1)c1ccccc1)S(=O)(=O)c1ccc2c(c1)CCC(=O)N2	0.85	1.27
CC1=C/C(=N\NS(=O)(=O)c2ccc(C)cc2)CC1	-0.6	.
CC1=NN(C(=O)c2cccs2)C(O)(C(F)(F)F)C1 (centres undefined)	-0.6	-0.09
COc1ccc2c(c1OC)C(=O)NC(C)=C(C(=O)OC(C)(C)C)C2O (centres undefined)	-0.95	.
O=C1Nc2ccc(Cl)cc2S/C1=C/Nc1ccccc1	0.85	-0.11
Cc1nc2ccn(Cc3cccnc3)c(=O)c2cc1C(=O)NCCC(C)C	0.45	83.6
CC1CCN(C(=O)Cn2cc(SCC(=O)N3CCc4ccccc43)c3ccccc32)CC1	-0.7	9.5
CCCOc1ccc(C2c3c(oc4ccc(Cl)cc4c3=O)C(=O)N2CCN(CC)CC)cc1OC (centres undefined)	0.15	.
O=C1C2C3C=CC(C3)C2C(=O)N1c1nc2ccccc2s1 (centres undefined)	-0.55	0.05
CC(C)N(C(=O)CSc1nc2ccc(Cl)cc2[nH]1)C(C)C	0.7	.
CC1CN(S(=O)(=O)c2ccc(NC(=O)Cc3ccccc3F)cc2)CC(C)O1 (centres undefined)	-0.45	.
CC1Cc2ccccc2N1C(=O)CSc1nc2cc(Cl)ccc2o1 (centres undefined)	-3.05	.
Cc1ccc(-c2ccc(CCC(=O)O)n2-c2cc(C)cc(C)c2)cc1	0.45	-0.52
O=CN1CCN(CC(O)Cn2c3ccccc3c3ccccc32)CC1 (centres undefined)	-0.4	0.245
O=C(O)CCCC[C@@H]1SC[C@@H]2NC(=O)N[C@@H]21	.	0.285
Cc1cc(/C=C(\C#N)C(=O)C(C)(C)C)c(C)n1C1CCCC1	-0.3	.
CCC(/C=N/Nc1nc(C)cc(C)n1)CC	-0.3	.
O=C(NC1CCCCC1)c1nn2c(C(F)(F)F)cc(-c3ccco3)nc2c1Br	.	0.045
CNC(=O)NC(=O)Cn1nc2n(c1=O)-c1ccccc1SC2	2.25	-1.24
CCOc1ccccc1N(C)C(=O)c1cc(S(=O)(=O)N(CC)c2ccccc2)ccc1F	0.1	0.175
O=C(CSc1nc2ccccc2c(=O)n1NC(=O)c1ccc(F)cc1)NCc1ccccc1	.	0.755
Oc1ccc(CNc2cccc(Cl)c2)c2cccnc12	-0.15	-1.8
N#Cc1ccc(-c2cnco2)cc1	.	-0.78

2 entries picked at random from those above, as already listed:
smiles	AID504770	CapD inh
Cc1cc(/C=C(\C#N)C(=O)C(C)(C)C)c(C)n1C1CCCC1	-0.3	.
CCOc1ccccc1N(C)C(=O)c1cc(S(=O)(=O)N(CC)c2ccccc2)ccc1F	0.1	0.175

The results go on.
smiles	AID504770	CapD inh
CC(C)(C)C(=O)C1C(c2ccc(Br)cc2)C(C#N)(C#N)C2C=Cc3ccccc3N12 (centres undefined)	.	3.53
CCC(=O)Oc1ccc2c(=O)c(-c3ccc(OC)c(OC)c3)c(C(F)(F)F)oc2c1	.	-1.32
COc1cccc(C2C=C(Nc3ccc(C)cc3)C(=O)N2c2ccc(C)cc2)c1 (centres undefined)	.	4.76
COc1ccccc1CNC(=O)c1sc2nc(C)nc(N3CCN(C)CC3)c2c1C	.	5.18
O=C(CSCC(=O)N1CCCC1)Nc1nc(-c2ccccc2)cs1	-0.95	-0.03
Cc1nc2cc3ccccc3cc2c(=O)n1CCCNC1CCCCC1	1.35	47.4
OC(CSc1ccc(F)cc1)CN1CCN(c2nc3ccc(Cl)cc3s2)CC1 (centres undefined)	-0.25	-0.68
COc1ccc(/C=C/C(=O)N2c3ccc(C)cc3C3CN(C)CCC32)cc1 (centres undefined)	2	.
COC(=O)c1sc(NC(=O)c2ccccc2)c(C(=O)OC)c1C	-0.85	3.92
CCc1ccc(OC(=O)c2ccc(C)cc2)cc1	-0.55	0.13
CSc1nsc(SC)c1C(=O)NCc1ccc2c(c1)OCO2	-0.65	-0.29
c1ccc(C2=Nc3ccccc3NC(c3ccccc3)C2)cc1 (centres undefined)	.	-0.725
Cc1ccc(C(C)(C)C)c(OCCN2CCCC2)c1	-0.35	0.29
CO[C@@]1(NC(=O)CSCC#N)C(=O)N2C(C(=O)O)=C(CSc3nnnn3C)CSC21 (some centres undefined)	0.25	0.05
CCc1nc2oc(C(=O)c3ccccc3)c(N)c2c2c1COC(C)(C)C2	-0.25	2.04
CC1=C(C(=O)Nc2ccc(C)cc2)C(c2ccco2)n2c(nc3ccccc32)N1 (centres undefined)	-0.85	3.18
Cc1nc2ccccc2c(=O)n1NCc1cccs1	1.7	-0.52
CC(C)NCCn1c(-c2ccc(Br)cc2)cn2c3ccccc3nc12	-0.5	-0.43
c1cnc(N2CCC(c3c[nH]c4ccccc34)CC2)nc1	.	0.015
CCCN(CC(=O)Nc1ccc(F)c(F)c1F)C(=O)c1cc2ccccc2o1	0.1	.
O=C(Cn1c(C(F)(F)F)nc2ccccc21)Nc1cccc(Cl)c1	.	-0.285
O=C(c1ccc2c(=O)n(Cc3ccc4c(c3)OCO4)c(=S)[nH]c2c1)N1CC=C(c2ccccc2)CC1	.	0.325
CCOC(=O)c1ccc(Cn2c3ccc(F)cc3c3nc4ccccc4nc32)o1	.	0.575
Cn1c(CNc2ccc(Cl)cc2)nnc1SCc1ccc(Cl)cc1	0.2	.

Later entries:
| compound | AID504770 | CapD inh |
| --- | --- | --- |
| CCOc1[nH]n(-c2ccc(Cl)cc2)c(=O)c1C=Nc1ccc(C)c(C)c1 | . | -0.545 |
| CC(=O)NCc1ccc(C(=O)COC(=O)c2cc(C)nc3ccccc23)o1 | -0.45 | . |
| O=C1N(c2ccc(Cl)cc2)C(c2ccc(Cl)cc2)N2CCCN12 (centres undefined) | 1 | -1.59 |
| S=c1[nH]c2ccccc2nc1N1CCOCC1 | -0.6 | . |
| CCOC(=O)c1[nH]c(COC(=O)[C@H](C)NS(=O)(=O)c2ccc(OC)cc2)c(C(=O)OCC)c1C | 0.15 | . |
| N#Cc1ccc(CN2C(=O)CCC2=O)cc1 | -0.2 | 0.21 |
| COC(=O)c1ccc(/C=C2\SC(=S)N(c3cccc(OC)c3)C2=O)cc1 | 0.8 | 0.65 |
| COc1ccc(NC(=O)C2C(c3ccccc3)=C2c2ccccc2)cc1 | 2.85 | 2 |
| O=C(O)C1Sc2[nH]c(=O)sc2C2c3cc(Br)cc(Br)c3OC(=O)C12 (centres undefined) | 0.15 | 2.87 |
| COc1ccc2oc(=Nc3ccc(C#N)cc3)c(C(=O)Nc3ccccc3)cc2c1 | . | 1.06 |
| Cn1nnnc1SCCCC(=O)c1ccc(F)cc1 | 1.15 | . |
| Cc1ccc(-c2nc3n(n2)C(=O)CC(c2ccc4c(c2)OCO4)S3)cc1 (centres undefined) | 1.1 | 0.735 |
| CCc1ccc(NC(=O)c2cc(S(=O)(=O)N3CCc4ccccc4C3)ccc2F)cc1 | . | 0.38 |
| O=c1nccc(C(F)(F)F)[nH]1 | -2.9&1.5 | 3.57 |
| CC(NC(=O)c1ccncc1)c1ccccc1 (centres undefined) | -0.5 | 0.33 |
| Cc1cc(C(F)(F)F)n2nc(C)cc2n1 | -0.9 | . |
| Cc1ccc(C(=O)N2CCN(C(=O)OCC3CCCN(Cc4ccc5ccccc5c4)C3)CC2)cc1 (centres undefined) | . | -0.18 |
| O=C1CCC(=O)N1CNc1ccccc1-n1cccc1 | . | 1.81 |
| Clc1ccc(-c2cn3nc(-c4ccccc4)c(-c4ccccc4)nc3n2)cc1 | . | 0.945 |
| O=S(=O)(c1ccccc1)N(CCOc1ccc(F)cc1)c1nccs1 | -0.1 | . |
| CCOc1ccc(NC(=O)c2cc(-c3ccc(F)cc3)[nH]c2C)cc1 | 2.1 | 0.775 |
| CCOC(=O)Cc1ccccc1[N+](=O)[O-] | . | 0.515 |
| COc1ccc(CCCOC(=O)N(C)CCc2ccccn2)cc1 | . | -0.43 |
| O=C(CCCn1c(=O)oc2ccccc21)NC1CCCc2ccccc21 (centres undefined) | 0.75 | . |
| CN(CC(=O)NCc1ccccn1)S(=O)(=O)c1ccccc1 | -0.75 | . |
| CC(=O)N1CCc2cc(C(=O)C[n+]3ccccc3)ccc21 | -0.7 | . |
| c1ccc(CN=C2CCc3ccccc3N2)cc1 | -0.3 | 0.455 |
| O=C(NNC(=O)c1cnn(-c2ccccc2)n1)c1ccc(Cl)c(Cl)c1 | . | 0.815 |
| Cc1ccc2nc(-c3cc(NC(=O)c4cccc(OCc5ccccc5)c4)ccc3Cl)oc2c1 | . | -0.005 |
| Cc1cc2c(=O)n(Cc3ccco3)c(SCC(=O)N3CCc4ccccc4C3)nc2s1 | 2.2 | 0.055 |
| CC[C@@H](C(=O)[C@@H](C)[C@@H](O)[C@H](C)[C@@H]1O[C@@H]([C@@H](CC)C(=O)O)CC[C@@H]1C)[C@H]1OC2(C=C[C@@H](O)[C@]3(CC[C@@](C)([C@H]4CC[C@](O)(CC)[C@H](C)O4)O3)O2)[C@H](C)C[C@@H]1C (some centres undefined) | 0.15 | 0.1 |
| CC(c1nnc(SCC(=O)Nc2sccc2C#N)n1-c1ccc(Cl)cc1)N(C)C (centres undefined) | -0.55 | . |
| CC12CC[C@H]3[C@@H](CCC4(O)C[C@H](O)CCC34/C=N/NC(=O)c3ccccc3F)C1(O)CCC2C1=CC(=O)OC1 (some centres undefined) | . | -0.49 |
| CC(C)N1C(=O)/C(=C\c2nc3ccccc3c(=O)n2-c2ccc([N+](=O)[O-])cc2)c2ccccc21 | . | 0.11 |
| Cc1cc(N)n2ncc(-c3ccccc3)c2n1 | -0.55 | . |
| CCOC(=O)c1c(C2CC2)csc1NC(=O)Cn1c(SC(C)C)nc2ccccc21 | 0.95 | . |
| Cc1ccc(-c2ccc(O)cc2)cc1 | 0.05 | 1.09 |
| Cc1cc(=O)oc2n[nH]c(CSc3ccc(Cl)cc3)c12 | -0.1 | -1.08 |
| CCCc1cc2c(=O)c(-c3ccccn3)c(C)oc2cc1OC(C)=O | -0.85 | 0.41 |
| CCOc1ccc2c3c(c(=O)oc2c1)CCC3 | 0.25 | 40.5 |

Exported field by field: part of the list above
Structure: Cc1cc(N)n2ncc(-c3ccccc3)c2n1
  AID504770: -0.55	CapD inh: .

Structure: CCOC(=O)c1c(C2CC2)csc1NC(=O)Cn1c(SC(C)C)nc2ccccc21
  AID504770: 0.95	CapD inh: .

Structure: CCCc1cc2c(=O)c(-c3ccccn3)c(C)oc2cc1OC(C)=O
  AID504770: -0.85	CapD inh: 0.41

Structure: CCOc1ccc2c3c(c(=O)oc2c1)CCC3
  AID504770: 0.25	CapD inh: 40.5

Following part:
| compound | AID504770 | CapD inh |
| --- | --- | --- |
| COC(=O)c1cc(OC)c(OC)cc1NS(=O)(=O)c1ccc(Cl)cc1Cl | . | -0.725 |
| Cc1cc(C)c2c(c1)/C(=N\N=c1\sc3ccccc3n1C)C(=O)N2 | 0.6 | . |
| O=c1c(/C=N\O)coc2ccc(F)cc12 | 1.15 | -0.35 |
| CCc1ccc(/C=C2/C(=O)N(C3CCCCC3)C(=S)N2C)cc1 | 0.25 | -0.275 |
| CCN(CC)Cc1c(C(=O)N/N=C/CCc2ccccc2)nnn1-c1nonc1N | . | -0.305 |
| CC12COC3(C(=O)Nc4ccccc4Cl)CC1CCC32C (centres undefined) | . | -0.24 |
| Cc1ccc2c(c1)C(C)(c1ccccc1)CC(C)(C)N2C(=O)CN1CCCCC1 (centres undefined) | . | 0.48 |
| Cc1cc(C)c(CSC(C)(C)CNC(=O)c2cccc([N+](=O)[O-])c2)c(C)c1 | . | -0.52 |
| O=C(CN1C(=O)c2ccccc2Sc2ccccc21)NCc1ccccc1 | -1.05 | -0.47 |
| COc1cccc(-n2cc(C(=O)N(CC(C)C)CC(C)C)c3ccccc3c2=O)c1 | 0.2 | 0.15 |
| CN(C)C(=O)Oc1cc(CSC(C)(C)C)nc(-c2cccs2)n1 | -0.45 | -0.21 |
| O=C1/C(=C/N2CCCCC2)SC(=S)N1c1ccc(F)cc1 | 0.85 | 0.265 |
| O=C(NCCCCCC(=O)N1CCC2(CC1)C(=O)NCN2c1ccccc1)OCc1ccccc1 | . | 0.305 |
| COc1ccc2[nH]c3c(=O)n(Cc4ccc(C(=O)NC5CC5)cc4)c(=S)[nH]c3c2c1 | -1.55 | -0.595 |
